Source: PubChem BioAssay (National Center for Advancing Translational Sciences (NCATS))
GLA inh pH 4.5: blocks human alpha-galactosidase A at pH 4.5. 230,000 tested, under 10 active. P06280. activity change, negative = inhibition, % at 105 µM. purified enzyme, 4-MU-alpha-Gal fluorescence, pH 4.5; inconclusive = small, poorly fitted or top-dose-only inhibition, or a rising curve; inactive = flat fitted curve, though single readings scatter; no compound was filed as active;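 note: 0% = full activity with enzyme and -100% = basal without enzyme; dose as in the result columns while the protocol names 77 µM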
Rango complex inh: prevents formation of the Rango-importin beta complex. Q14974. Rango CFP/YFP FRET sensor + importin beta, 45 min. Potency, µM (highest dose often 92.2 µM), without a hit: at the highest dose inhibition of complex formation. 340,000 compounds, 0.031% hits. AID 540263; active = rising FRET ratio curve, often small or poorly fitted; inconclusive = mostly compound fluorescence or quenching in the first reads; inactive = flat curves in all reads;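 note: potency is the fitted concentration of half-maximal effect; 0% = DMSO wells and 100% = buffer wells lacking importin beta; nearly all actives have a fitted effect of over 15% in size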
Target sequence (Q14974 whole entry, looked up): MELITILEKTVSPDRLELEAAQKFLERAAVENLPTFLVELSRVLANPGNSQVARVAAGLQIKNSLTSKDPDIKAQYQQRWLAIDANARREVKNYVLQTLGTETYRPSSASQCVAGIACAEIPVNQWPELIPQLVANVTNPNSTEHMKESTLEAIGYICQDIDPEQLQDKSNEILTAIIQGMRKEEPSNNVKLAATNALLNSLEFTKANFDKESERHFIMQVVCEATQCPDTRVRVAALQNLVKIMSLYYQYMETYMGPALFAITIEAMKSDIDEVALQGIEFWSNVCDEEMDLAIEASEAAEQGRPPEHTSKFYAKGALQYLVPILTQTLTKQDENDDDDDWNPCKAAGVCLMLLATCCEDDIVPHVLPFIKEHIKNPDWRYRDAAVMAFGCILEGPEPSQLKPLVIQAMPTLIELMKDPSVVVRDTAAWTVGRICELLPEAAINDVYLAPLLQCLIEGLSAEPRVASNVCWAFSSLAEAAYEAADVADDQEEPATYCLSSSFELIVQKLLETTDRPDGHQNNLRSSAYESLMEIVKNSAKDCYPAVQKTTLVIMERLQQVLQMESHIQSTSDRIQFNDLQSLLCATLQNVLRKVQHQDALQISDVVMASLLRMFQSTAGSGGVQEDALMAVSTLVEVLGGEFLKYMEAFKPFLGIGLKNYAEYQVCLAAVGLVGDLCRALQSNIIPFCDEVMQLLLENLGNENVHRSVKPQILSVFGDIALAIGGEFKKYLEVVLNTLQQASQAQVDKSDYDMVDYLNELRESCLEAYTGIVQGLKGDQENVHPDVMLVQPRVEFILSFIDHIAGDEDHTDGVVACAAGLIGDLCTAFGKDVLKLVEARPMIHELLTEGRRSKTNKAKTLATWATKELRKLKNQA
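FRET biosensor Rango (snurportin 1 IBB between N-terminal EYFP and C-terminal Cerulean), 50 nM in PBS/1 mM DTT/0.02% Tween-20/0.1% BSA, preincubated 5 min RT with compound; 0.125 microM importin beta added, 45 min RT, CFP/YFP FRET ratio read.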
miR-21 FLuc: raises the signal of a miR-21 reporter; HeLa miR-21 FLuc reporter, luciferase, 48 h; Potency, µM (highest dose often 38.3 µM), inactives show at the highest dose reporter change, positive = more light; 340,000 tested, under 10 active; active = well fitted rising curve with a large enough effect; inconclusive = small, poorly fitted or top-dose-only effect; inactive = no such curve, though single readings can be large or run the other way;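 note: % of control where 0% means no effect; miR-21 action dims this reporter so a rising signal means less miR-21 action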
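Compounds were titrated across several concentrations (up to approximately 40 uM) and incubated 48 hours with HeLa miR-21-FLuc reporter cells (miR-21 target sequence downstream of FLuc, endogenous miR-21). Readout was firefly luciferase luminescence after lytic detection reagent.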
Rango dissoc inh: inhibition of RanGTP-driven Rango-importin beta dissociation; O95149+P62826; Potency, µM (highest dose often 46.1 µM), inactives show top-dose activity change, negative = inhibition; 340,000 compounds, 0.071% hits; AID 540253; Biochemical FRET Rango-importin beta, RanGTP-induced dissociation; active means falling FRET ratio curve, often poorly fitted, with flat reads before Ran was added; inconclusive means other falling curves, or compound fluorescence or quenching; inactive means flat or rising ratio curve;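 note: potency is the fitted concentration of half-maximal effect; % of control where 0% means no effect; nearly all actives have a fitted effect of over 45% in size; -100% = wells without RanGTP and RCC1; the record marks most hits as doubtful in a second field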
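FRET read at 45 min, room temperature: inhibitors block the CFP/YFP signal rise when RanGTP (0.6 uM Ran, 2 mM GTP, 0.2 uM RCC1) frees Rango (0.1 uM) from importin beta (0.25 uM). Pre-read after 5 min compound exposure flags interference.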
Numbers without * were called inactive; ? = inconclusive; / = no result given. This is a subset (hit frequency here may not be typical).

SMILES	GLA inh pH 4.5	Rango complex inh	miR-21 FLuc	Rango dissoc inh
Cc1cccc(NC(=S)N(c2ccccc2)C(C)C)c1C	1	2.5%	-1%	-5%
C/C(=N\Nc1ccccc1)c1c(O)cc(C)oc1=O	9	1.7%	0%	0%
CCOC(=O)c1ccc(N2C(=O)c3n[nH]c(C)c3C2c2ccco2)cc1 (stereo unspecified)	-4	-1.3%	0%	2%
CCOc1ncccc1C(=O)Nc1ccc(OC)c(S(=O)(=O)N2CCCCC2)c1	-7	?	-1%	-20%
Cc1cccc(CSc2nncc(=O)[nH]2)c1	11	-5.4%	-2%	-21%
C=CCC(C=C)[N+]1(CC(=O)OC)CCCCC1 (stereo unspecified)	9	1.9%	2%	10%
CCOc1ccc(-n2nc3c(=O)n(CCN4CCCCC4)nc(C)c3c2C)cc1	3	0.5%	-13%	2%
Nc1cc(-c2ccc(Br)cc2)[nH]n1	3	0.1%	14%	0%
CCOc1ccc(CCNC(=O)c2ccc(C)c(N3CCCC3=O)c2)cc1OCC	-4	4.0%	-7%	-6%
CCCNC(=O)c1ccc(N(Cc2ccccc2)S(C)(=O)=O)cc1	15	2.2%	1%	9%
O=C(OCC(=O)N1CCCC1)c1c(Cl)ccc(Cl)c1Cl	/	4.0%	-12%	-7%
Cc1ccc(N(Cc2ccccc2)C(=O)c2cc(S(=O)(=O)N3CCOCC3)ccc2Cl)cc1	/	-1.0%	/	10%
CC1(C)Oc2ccc3ccc(=O)oc3c2[C@@H](O)[C@@H]1O	/	-2.3%	/	-3%
CCOC(=O)c1[nH]c(C)c(/C(O)=C2\C(=O)C(=O)N(CCCN3CCOCC3)C2c2cccs2)c1C (stereo unspecified)	-3	?	-17%	-5%
CC1CCN(C(=O)Cn2c3ccccc3c3nc4n(c(=O)c32)CCS4)CC1	/	0.6%	0%	2%
Cc1ccc(NC(=O)Cn2nnc(-c3ccccc3-n3cnnn3)n2)c(C)c1	-2	5.0%	3%	-11%
O=C(CSc1nc2ncc(Cl)cc2[nH]1)N1CCC(Cc2ccccc2)CC1	/	?	/	0%
COC(=O)C1CSC2c3ccccc3C(=O)N12 (stereo unspecified)	/	3.3%	/	-13%
COC(=O)NC(=C(Cl)Cl)S(=O)(=O)c1ccccc1	12	-0.4%	?	-1%
CSc1nc(N)nc2c1ncn2C1OC(CO)CC1O (stereo unspecified)	/	3.8%	/	-5%
O=C(Nc1ccccc1N1CCCC1)C1=COCCO1	/	-2.6%	/	?
c1ccc(COc2ccc(OCCCCN3CCCCC3)cc2)cc1	-25	-2.8%	-28%	21%
Cn1c(=O)[nH]c(=O)c2c1nc(SCCO)n2CCCc1ccccc1	/	0.2%	-19%	4%
CCCc1cc(C(=O)Nc2cc(C)on2)no1	-8	4.6%	-4%	4%
CCNC(=S)Nc1ccc(N(c2ccccc2)C(C)C)cc1	-11	-1.4%	0%	10%
COC(=O)CNC(=O)c1ccc(F)cc1	-8	-3.1%	2%	4%
C=CCn1c(SCc2ccc(C#N)cc2)nnc1-c1cccc(Cl)c1	-5	-0.7%	-6%	0%
CS(=O)(=O)N(CC(=O)NC1CCCC1)c1ccc2c(c1)OCCO2	-7	-3.1%	-3%	?
CCCC(=O)Nc1cc(-c2nnc(OC)c3ccccc23)ccc1N1CCCCC1	-9	/	-1%	/
Cc1cc(=O)[nH]c(N/N=C/c2ccc(Cl)cc2Cl)n1	/	-4.7%	-3%	-6%
CCOC(=O)N1CCC(NS(=O)(=O)c2cc(Br)cc3c2N(C(=O)CC)CC3)CC1	7	0.7%	2%	9%
O=C(NNC(=O)c1ccccc1Br)c1ccc2nc[nH]c2c1	/	1.6%	-2%	7%
Cc1cccc(Nc2nc(N)c([N+](=O)[O-])c(NCc3ccccc3)n2)c1	-5	1.2%	14%	0%
CC1CCCN(Cc2nc3c(c(=O)n(C)c(=O)n3C)n2CC(=O)c2ccccc2)C1 (stereo unspecified)	-5	-2.5%	-1%	-8%
COc1ccccc1C1CN(c2ccc(F)cc2F)N=C1c1cccs1 (stereo unspecified)	?	-0.5%	-2%	?
CCC(C)c1ccc(OCC(=O)O)cc1 (stereo unspecified)	-5	1.9%	-6%	-1%
O=C(NCc1cccnc1)c1ccc(S(=O)(=O)Nc2ccccc2)cc1	/	-0.2%	/	-3%
Cc1ccc(-n2c(SCC(=O)NCCN3C(=O)CSC3=O)nnc2-c2ccccc2)cc1	-2	0.1%	-6%	5%
Cc1ccc(OCC(=O)N/N=C\c2ccc(-c3cccc(C(=O)O)c3)o2)c(C)c1	-11	?	-53%	-16%
CCOc1cc(C2C(C(=O)OC(C)C)=C(C)N=C3SCCC(=O)N32)ccc1OC(C)=O (stereo unspecified)	-4	0.9%	3%	9%
NC(=O)CC(NC(=O)Cc1ccc(Br)cc1)c1ccc(N2CCC(N3CCCCC3)CC2)c([N+](=O)[O-])c1 (stereo unspecified)	/	0.1%	-8%	9%
CC1(C)CC(=O)CC2(C1)NCC(c1ccccc1)c1c2[nH]c2ccccc12 (stereo unspecified)	-14	-0.2%	6%	-14%
CSC(=NCc1ccc(F)cc1)NS(=O)(=O)c1cccs1	-1	-0.7%	-9%	0%
O=C(CSc1nncs1)Nc1ccc(Cl)cn1	3	-4.9%	-5%	3%
COc1cc2c(c(OC)c1OC)-c1c(cc3c(c1OC)OCO3)C[C@H](C)[C@@](C)(O)C2	-1	-4.7%	0%	7%
Cc1cc(=O)n(C)c(=O)n1CCCCCCOc1ccc([N+](=O)[O-])cc1	0	/	-5%	/
CC(=O)Nc1ccc(S(=O)(=O)NCc2ccc3c(c2)cc(C)n3C)cc1	2	?	13%	23µM*
ON=C1CCN(c2ncc(C(F)(F)F)cc2Cl)CC1	1	0.4%	-7%	1%
O=P(OC1CCCCC1)(OC1CCCCC1)C(O)c1c(Cl)cccc1Cl (stereo unspecified)	-7	-0.3%	14%	-8%
COc1ccc(C2C(=O)N(C3CCCCCC3)CC(=O)N2Cc2ccccc2)cc1OC (stereo unspecified)	7	-3.8%	-12%	-9%
COc1ccc2ccccc2c1C1CC(=O)N2CN(Cc3ccco3)CSC2=C1C#N (stereo unspecified)	0	-0.2%	-8%	?
O=C(NNC(=O)c1ccc(-c2ccccc2)cc1)Nc1ccc(F)cc1F	/	-2.0%	-1%	10%
COC(=O)c1ccc(S(=O)(=O)N2CCCN(Cc3ccc(F)cc3)CC2)n1C	3	0.9%	16%	3%
Cn1cc(CNC(=O)C23CC4CC(CC(C4)C2)C3)cn1	1	0.1%	-7%	1%
Cc1ccc(-n2ncc(Br)c(Br)c2=O)cc1	-29	9.8%	?	0%
O=C(CC1C(=O)NCCN1C(=O)Nc1ccccc1)Nc1ccc(F)cc1 (stereo unspecified)	-11	-0.7%	-7%	-8%
CC(=O)NC(CC(=O)NNC(=O)c1cccs1)c1ccccc1 (stereo unspecified)	/	2.1%	/	-1%
CSc1nnc(C)c(=O)n1COC(=O)c1ccccc1	2	-0.8%	8%	33%
CC1CN(c2ccc([N+](=O)[O-])cc2Cl)CCN1S(C)(=O)=O (stereo unspecified)	-3	8.9%	14%	-21%
C=CCn1c(=O)c2c(nc3n2CCS3)n(C)c1=O	8	0.5%	4%	7%

Part of the list above, as a markdown table:
| Structure | GLA inh pH 4.5 | Rango complex inh | miR-21 FLuc | Rango dissoc inh |
| --- | --- | --- | --- | --- |
| COc1cc2c(c(OC)c1OC)-c1c(cc3c(c1OC)OCO3)C[C@H](C)[C@@](C)(O)C2 | -1 | -4.7% | 0% | 7% |
| Cc1cc(=O)n(C)c(=O)n1CCCCCCOc1ccc([N+](=O)[O-])cc1 | 0 | / | -5% | / |
| CC(=O)Nc1ccc(S(=O)(=O)NCc2ccc3c(c2)cc(C)n3C)cc1 | 2 | ? | 13% | 23µM* |
| ON=C1CCN(c2ncc(C(F)(F)F)cc2Cl)CC1 | 1 | 0.4% | -7% | 1% |
| O=P(OC1CCCCC1)(OC1CCCCC1)C(O)c1c(Cl)cccc1Cl (stereo unspecified) | -7 | -0.3% | 14% | -8% |
| COc1ccc(C2C(=O)N(C3CCCCCC3)CC(=O)N2Cc2ccccc2)cc1OC (stereo unspecified) | 7 | -3.8% | -12% | -9% |
| COc1ccc2ccccc2c1C1CC(=O)N2CN(Cc3ccco3)CSC2=C1C#N (stereo unspecified) | 0 | -0.2% | -8% | ? |
| O=C(NNC(=O)c1ccc(-c2ccccc2)cc1)Nc1ccc(F)cc1F | / | -2.0% | -1% | 10% |
| COC(=O)c1ccc(S(=O)(=O)N2CCCN(Cc3ccc(F)cc3)CC2)n1C | 3 | 0.9% | 16% | 3% |
| Cn1cc(CNC(=O)C23CC4CC(CC(C4)C2)C3)cn1 | 1 | 0.1% | -7% | 1% |
| Cc1ccc(-n2ncc(Br)c(Br)c2=O)cc1 | -29 | 9.8% | ? | 0% |
| O=C(CC1C(=O)NCCN1C(=O)Nc1ccccc1)Nc1ccc(F)cc1 (stereo unspecified) | -11 | -0.7% | -7% | -8% |
| CC(=O)NC(CC(=O)NNC(=O)c1cccs1)c1ccccc1 (stereo unspecified) | / | 2.1% | / | -1% |
| CSc1nnc(C)c(=O)n1COC(=O)c1ccccc1 | 2 | -0.8% | 8% | 33% |

Going on with the list:
SMILES	GLA inh pH 4.5	Rango complex inh	miR-21 FLuc	Rango dissoc inh
COc1ccc(NS(=O)(=O)c2ccc(C(=O)N(C)Cc3cccs3)cc2)cc1	/	-0.7%	/	-2%
O=C(CCc1ccc(S(=O)(=O)N2CCOCC2)cc1)OCC(=O)c1ccccc1	/	-0.9%	/	-6%
CC1=Nn2c(nnc2-c2ccccn2)SC1	-1	-0.9%	2%	-13%
O=C(NCCO)c1nc(C(=O)c2ccc(Cl)cc2)c2ccccc2n1	/	0.4%	/	0%
CC(=O)N1c2ccc(S(=O)(=O)N3CCCC(C(=O)NCc4ccc(Cl)cc4)C3)cc2CC1C (stereo unspecified)	/	-1.7%	0%	-7%
Cc1ccc(OCCNC(=O)Cc2ccc(F)cc2)cc1	-8	3.0%	1%	1%
CCOc1ccccc1-c1nc(CN2CCCC2c2nccs2)c(C)o1 (stereo unspecified)	-9	-1.1%	-2%	-3%
COc1ccc2c(c1)c1nc3n(c(=O)c1n2CC(=O)Nc1cc(C)[nH]n1)CCS3	13	/	14%	/
Cc1nn(C2CCS(=O)(=O)C2)c(C)c1C=O (stereo unspecified)	11	-1.6%	2%	-10%
CCNS(=O)(=O)c1ccc(CCC(=O)N2CCN(c3cc(Cl)ccc3C)CC2)cc1	/	1.1%	?	-4%
Cc1nc(C)n(CCNS(=O)(=O)c2ccc(C)c(C)c2)n1	/	-0.1%	-2%	-8%
Cc1cc(C)c2cc(CN(CCO)Cc3nnnn3Cc3ccccc3)c(=O)[nH]c2c1	6	4.3%	-5%	-5%
Cc1nn(CCOc2ccc(Br)cc2)c(C)c1[N+](=O)[O-]	-2	-2.3%	0%	-3%
COC(=O)c1ccc(NC(=O)c2c(Br)cnn2C)cc1	/	4.1%	-26%	0%
OCCC1CN(Cc2cc3c(cc2Cl)OCO3)CCN1C1CCCC1 (stereo unspecified)	5	9.0%	0%	14%
CC(C)c1ccccc1NC(=S)N1CCN(Cc2ccc3c(c2)OCO3)CC1	1	0.7%	-1%	-6%
CN1/C(=C\C=C(/C#N)C(=O)Nc2ccccc2F)C(C)(C)c2ccccc21	0	?	-4%	?
O=C(Nc1ccc(OCC(=O)N2CCOCC2)cc1)c1cc(F)c(F)cc1Cl	/	0.7%	-11%	-5%
COCCN(C(=O)CCC(=O)Nc1ccccn1)C(C(=O)NCCC(C)C)c1ccc(OC)cc1 (stereo unspecified)	8	0.1%	-7%	18%
O=C(c1ccc(N2C(=O)C3C4CC(C(Br)C4Br)C3C2=O)cc1)N1CCCCC1 (stereo unspecified)	/	3.0%	-1%	-19%
CCOC(=O)N1CCN(c2cc(N)c([N+](=O)[O-])cc2F)CC1	-7	1.8%	2%	9%
O=C1Cc2ccccc2C(=O)N1OCc1ccc(Cl)cc1Cl	0	0.4%	0%	-1%
O=C(CSc1nc(-c2ccco2)cc(C(F)(F)F)n1)NCc1cccs1	-1	0.6%	-3%	2%
O=C(NCc1cccnc1)c1ccc(COc2ccc(Cl)cc2Cl)o1	3	0.7%	8%	9%
